Screening data (PubChem)
rRNA inh HTS – reduced GFP signal of wild-type E. coli, primary screen, bacterial rRNA inhibitor project, GFP/RFP fluorescence, OD600, single point. GFP signal change (wild-type ribosome), % (concentration not given with the values). E. coli WT GFP vs humanized-ribosome RFP mutants, 24 h; active compounds read low; DMSO median 0, no signal -100. 350,000 compounds, 1.6% hits;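 active = significant combined selectivity score with lowered wild-type GFP, culture density cut under 30%, mutant RFP and density less affected; inactive = any of these conditions unmet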; also: one replicate is shown; some compounds called inactive have numbers as strong as hits
Calb FLC – C. albicans growth inhibition with fluconazole, primary screen, CaCi-2 strain, Alamar Blue fluorescence; C. albicans CaCi-2 (fluconazole-resistant clinical isolate) + fluconazole, 48 h; growth inhibition, % (concentration not given with the values); 300,000 compounds, 0.57% hits; AID 1979, 2009;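 active = most replicates above 75%; inconclusive = exactly half above 75%; inactive = most below 75%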;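 also: all wells also contain fluconazole at 8 µg/ml as a sub-toxic cotreatment; 0% = median of DMSO wells and 100% = median of geldanamycin control wells; wells of about 8 µL received 7.5 nL stock; the first replicate is given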
ALR H2O2 inh – inhibitors of human ALR sulfhydryl oxidase, primary screen, biochemical, H2O2 detection, HRP-luminol luminescence, single point. FAD-linked sulfhydryl oxidase ALR (Homo sapiens), P55789. purified ALR, DTT oxidation. inhibition, % (no concentration beside the values). 290,000 compounds, 3.8% hits. AID 485317, 2010;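 active = mean and each replicate at 75% or more; inconclusive = only one of the two met; inactive = neither met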;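 also: stock transfer was 7.5 nL into about 7.5 µL; 0% = neutral wells and 100% = wells with inactivated enzyme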
LANA-H2A inh – blockers of LANA interaction with H2A/H2B – biochemical, FP readout, HTS, primary screen; cell-free LANA-H2A/H2B peptide, fluorescence polarization; inhibition, % (test concentration not listed); 320,000 compounds, 0.6% hits; AID 2629, 2010; in the data active = inhibition mostly above about 10%, no sharp cut-off; inactive = mostly below about 6.7%;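 also: stock transfer was 7.5 nL into about 10 µL; 0% = median of vehicle wells and 100% = median of positive control wells; one replicate is shown; the record names a cut of 25% in any replicate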
Target sequence (Q9QR71 whole entry, looked up): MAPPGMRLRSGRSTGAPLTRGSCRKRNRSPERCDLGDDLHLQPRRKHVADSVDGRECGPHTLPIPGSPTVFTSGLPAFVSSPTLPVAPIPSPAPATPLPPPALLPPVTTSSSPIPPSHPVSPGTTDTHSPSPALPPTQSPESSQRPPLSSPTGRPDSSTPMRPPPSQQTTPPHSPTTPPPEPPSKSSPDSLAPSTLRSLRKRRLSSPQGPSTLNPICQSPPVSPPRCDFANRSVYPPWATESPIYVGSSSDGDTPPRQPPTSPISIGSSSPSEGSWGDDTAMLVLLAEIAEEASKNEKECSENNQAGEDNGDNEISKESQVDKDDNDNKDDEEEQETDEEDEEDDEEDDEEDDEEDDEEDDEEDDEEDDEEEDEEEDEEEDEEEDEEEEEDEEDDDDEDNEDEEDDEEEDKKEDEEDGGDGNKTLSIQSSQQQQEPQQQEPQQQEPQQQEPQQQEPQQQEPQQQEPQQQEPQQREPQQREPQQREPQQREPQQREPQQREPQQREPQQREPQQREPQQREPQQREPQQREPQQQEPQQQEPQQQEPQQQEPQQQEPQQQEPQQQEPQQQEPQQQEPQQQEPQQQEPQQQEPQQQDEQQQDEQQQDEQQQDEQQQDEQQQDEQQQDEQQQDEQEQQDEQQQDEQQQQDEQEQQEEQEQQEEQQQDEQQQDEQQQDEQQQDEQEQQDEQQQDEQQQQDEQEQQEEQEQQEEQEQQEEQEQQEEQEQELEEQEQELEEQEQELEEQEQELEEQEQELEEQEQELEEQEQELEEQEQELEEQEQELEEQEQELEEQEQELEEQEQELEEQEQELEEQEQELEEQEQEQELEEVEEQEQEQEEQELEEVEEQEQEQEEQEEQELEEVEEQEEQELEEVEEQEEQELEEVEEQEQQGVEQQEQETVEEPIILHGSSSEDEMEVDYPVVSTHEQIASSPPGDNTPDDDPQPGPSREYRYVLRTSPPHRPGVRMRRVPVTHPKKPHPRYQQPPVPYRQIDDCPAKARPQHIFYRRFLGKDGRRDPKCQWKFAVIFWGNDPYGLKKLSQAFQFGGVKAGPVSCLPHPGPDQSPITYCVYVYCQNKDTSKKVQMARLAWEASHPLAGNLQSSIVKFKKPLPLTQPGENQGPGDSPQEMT
B2AR ag – beta2AR agonists driving receptor internalization, primary screen, cell-based, FAP fluorogen, flow cytometry; Am2.2-beta2AR cells; reference of the scale not given here; response, % (concentration not given with the values); 340,000 compounds, 0.43% hits; AID 504454, 2011;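 active = response above a set limit, near 3 SD of response in nonfluorescent compounds, cut at about 42% in these data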;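 also: stock transfer was 100 nL into about 11 µL; a reference agonist was the positive control; negative values mostly stem from fluorescent compounds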
A1 inh – caspase 3/7 activation in MEF A1-2A-BIM cells, primary screen, A1 inhibitor project, cell-based, luminescence, HTS. caspase activation, % (test concentration not listed). Caspase-Glo 3/7 luminescence, 3 h; percent of clofoctol response, vehicle zero. 330,000 compounds, 0.066% hits. AID 2462, 2010;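 active = over half of replicate activation scores above 10%, or exactly half above 10 with the replicate mean above 10; inconclusive = replicate mean below 10 yet half the replicates above 10; inactive = over half of replicates below 10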;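 also: wells of about 30 µL received 50 nL stock; many hits fall short of the cut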
T cruzi repl – inhibitors of intracellular T. cruzi growth, primary screen, luminescence, NIH3T3 host cells. T. cruzi beta-gal in NIH3T3, 90 h. inhibition, % (no concentration beside the values). AID 1885, 2009. 300,000 compounds, 1.4% hits;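 active = mean inhibition across valid replicates above about 55%, limit read from the data; inconclusive = mean below that limit but half or more replicates reach it; inactive = mean below it, under half of replicates reach it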;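 also: signal also drops with host cell toxicity which is not excluded here; 0% = plate median of DMSO wells and 100% = zero luminescence signal; higher percent means less beta-gal luminescence so fewer parasites; stock transfer was 50 nL into about 50 µL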
Beta apoptosis – inhibitors of cytokine-induced beta cell apoptosis, primary screen, luminescence; AID 435005, 2010; INS-1E cytokine-induced death, ATP luminescence, 48 h; percent of positive-control rescue, neutral wells zero; 300,000 compounds, 0.8% hits; protection from apoptosis, % (concentration not given with the values);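 active = all replicates at 75% or more, or half of them and the mean; inconclusive = half reach 75% but not the mean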;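 also: 0% = cytokine-treated negative control wells and 100% = positive control rescue; higher means more ATP so stronger rescue from cytokine killing; wells of about 40 µL received 100 nL stock; the first replicate is given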
rRNA inh HTS OD600 – further read-out of rRNA inh HTS, marked with its call; OD600 change, %; measured here: OD600 growth;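 optical density of the mix in the first replicate; 0 = DMSO median and -100 = no signal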
rRNA inh HTS RFP – second read-out of rRNA inh HTS, no call of its own (marks repeat the call); RFP signal change, %; measured here: RFP humanized mutant strains;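 first replicate; 0 = DMSO median and -100 = no signal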
Numbers without * were called inactive; ? = inconclusive; · = no result given; & = joins results of further samples. Only part of the results is shown (hit frequency here may not be typical).

Sample of the layout, 2 compounds:
SMILES | rRNA inh HTS | rRNA inh HTS OD600 | rRNA inh HTS RFP | Calb FLC | ALR H2O2 inh | LANA-H2A inh | B2AR ag | A1 inh | T cruzi repl | Beta apoptosis
COc1ccc(CC(=O)OCC(=O)N2CCN(S(=O)(=O)c3ccc(C)cc3C)CC2)cc1 | -16 | -15 | 1.1 | · | -5 | -8.8 | 2 | 0.3 | · | -5
CC(=O)Nc1ccc(-c2csc(NC(=O)c3ccc(C)o3)n2)cc1 | -41 | -38 | -11 | -8 | 11 | -5.6 | 9 | 0.2 | 4 | -1

Main list (from the top)
SMILES | rRNA inh HTS | rRNA inh HTS OD600 | rRNA inh HTS RFP | Calb FLC | ALR H2O2 inh | LANA-H2A inh | B2AR ag | A1 inh | T cruzi repl | Beta apoptosis
COc1ccc(CC(=O)OCC(=O)N2CCN(S(=O)(=O)c3ccc(C)cc3C)CC2)cc1 | -16 | -15 | 1.1 | · | -5 | -8.8 | 2 | 0.3 | · | -5
CC(=O)Nc1ccc(-c2csc(NC(=O)c3ccc(C)o3)n2)cc1 | -41 | -38 | -11 | -8 | 11 | -5.6 | 9 | 0.2 | 4 | -1
Cc1cc(C)c(C(=O)C(C)OC(=O)c2ccc(Cl)nc2)cc1C (stereo not drawn) | -22 | -34 | -2.6 | 49 | 2 | -2.7 | -10 | -1.0 | 4 | 6
Cc1c(Br)c(C(=O)N2CCc3ccccc32)nn1C | · | · | · | -7 | -3 | -0.9 | -13 | -6.3 | -1 | 1
O=C(c1cc(C(=O)NCCc2ccccc2)c(=O)n(CCc2ccccc2)c1)c1cc(Cl)ccc1O | · | · | · | ? | 1 | -1.8 | 12 | 1.9 | -15 | 17
COc1ccc(OCC(=O)O/N=C(\N)Cc2ccc(Cl)cc2)cc1 | · | · | · | -5 | -11 | -4.2 | 4 | -1.4 | -13 | -5
Cn1c(=O)oc2cc(S(=O)(=O)NCCN3CCCCCC3)ccc21 | · | · | · | -8 | -3 | 1.6 | -10 | 0.0 | 10 | 2
O=C1COc2ccc(S(=O)(=O)N3CCCC3)cc2N1 | 1 | 4 | -2.3 | -2 | · | -12 | -1 | 0.3 | 5 | 0
C[C@H](NC(=O)c1nc[nH]c1C(=O)NCC(=O)OCc1ccccc1)C(=O)OC(C)(C)C | -7 | -13 | 28 | -1 | -3 | -8.1 | -8 | -0.7 | 4 | -1
Cc1nc2ccccc2nc1OCC(=O)Nc1cc(C(F)(F)F)ccc1N1CCOCC1 | · | · | · | 2 | -5 | -5.0 | -3 | -0.9 | 7 | 3
O=S(=O)(c1ccc(Cl)s1)N1CCCc2cccc(O)c21 | · | · | · | 68* | 99* | -2.6 | 1 | 0.9 | 6 | 13
O=C(CN(CC1CCCO1)C(=O)CNS(=O)(=O)c1ccccc1)NCc1ccc(F)cc1 (stereo not drawn) | 1 | 5 | 0.9 | 3 | 1 | 3.3 | 6 | -0.5 | -7 | -10
COCCNC(=O)NC(=O)COC(=O)c1cc([N+](=O)[O-])ccc1Sc1nc(C)cs1 | · | · | · | -1 | -6 | 0.2 | -9 | 0.4 | -7 | -11
CCOc1cc(Br)cc(/C=C2\SC(=Nc3ccccc3)NC2=O)c1O | -12 | -4 | 11 | -14 | 48 | -1.4 | 6 | 0.3 | 0 | -1
COc1ccccc1OCc1ccc(C(=O)N(C)C)o1 | · | · | · | 6 | -15 | 0.3 | 1 | -0.5 | 4 | -1
CNC(=O)C1Cc2ccccc2CN1S(=O)(=O)c1cccs1 (stereo not drawn) | · | · | · | 2 | -2 | 5.5 | -5 | 1.5 | -1 | 3
COc1ccc(S(=O)(=O)N2CCC(C(=O)NC3CCCCC3C)CC2)cc1 (stereo not drawn) | 2 | -5 | -1.7 | -2 | -2 | -2.9 | -3 | -0.1 | 1 | -5
Cc1nn(-c2ccccc2)c(Cl)c1/C=C1\C(=O)N(C)C(=S)N1C | -28 | -40 | -1.5 | 6 | -8 | -4.4 | 5 | -0.2 | 14 | -1
CC1(C)CC(=O)C(N=Nc2cccc(S(=O)(=O)N3CCOCC3)c2)=C(O)C1 | 3 | 1 | 4.3 | -2 | 2 | -0.4 | -2 | 0.8 | -17 | -3
Cc1ccc(S(=O)(=O)NCc2ccccc2)cc1C(=O)N1CCCCCCC1 | -3 | -13 | 1.7 | -6 | 5 | -2.0 | -6 | -0.2 | 9 | 1
COC(=O)c1c(NC(=O)c2ccco2)sc2c1C(C(=O)OC)CC2 (stereo not drawn) | · | · | · | 10 | -4 | 0.5 | -4 | 0.7 | 9 | 7
Cc1ccc(CN(CC2CCCO2)C(=O)CN2C(=O)C(C(C)C)Oc3ccccc32)o1 (stereo not drawn) | · | · | · | 4 | -4 | -1.3 | 2 | 0.4 | 17 | 3
CC1(C)CN(c2ccc(CC#N)cc2)C1=O | 8 | 10 | 1.0 | -3 | 0 | 12 | 23 | -1.1 | -11 | 0
CCCn1c(N)c(N(CCOC)C(=O)c2cccc(S(=O)(=O)N3CCCc4ccccc43)c2)c(=O)[nH]c1=O | -1 | 2 | 1.2 | 20 | -5 | 9.8 | 9 | 0.0 | 4 | -4
O=C(Cn1c(=O)sc2ccccc21)Nc1ccc(S(=O)(=O)N2CCCCC2)cc1 | · | · | · | -13 | · | 1.8 | 1 | 0.3 | 14 | ·
O=C(c1ccc(C(F)(F)F)cc1)C1CCCN(C(=O)CCc2cnccn2)C1 (stereo not drawn) | -2 | 1 | 0.0 | -10 | 1 | -4.2 | -1 | -0.2 | 10 | 3
COCCCNc1nc(N)c([N+](=O)[O-])c(Nc2ccccc2OC)n1 | · | · | · | -9 | -32 | -2.1 | 0 | -0.3 | -4 | -13
Cn1cc(C(=O)Nc2ccc(C#N)cc2)c2ccccc2c1=O | 5 | 2 | 0.6 | 8 | -14 | -1.8 | 3 | -0.9 | -21 | -1
C[C@H](CO)N1C[C@H](C)[C@@H](CN(C)S(C)(=O)=O)Oc2c(NC(=O)Nc3ccc4c(c3)OCO4)cccc2C1=O | 2&15 | 2&12 | -0.9&4.3 | · | -7 | · | 2 | -0.4 | · | -2
O=C(COC(=O)C1CCN(c2ccc(C(F)(F)F)cn2)CC1)Nc1cccc(F)c1 | -51 | -79 | -16 | -6 | -5 | 0.8 | 5 | -1.0 | 0 | -4
CC(NC(=O)c1cc(F)c(F)c(F)c1F)c1ccc(-n2ccnc2)cc1 (stereo not drawn) | 7 | -5 | -2.4 | -1 | -2 | -7.5 | -5 | 3.3 | 11 | ·
COc1ccc2cc(C(C)=O)c(=O)oc2c1 | · | · | · | -5 | -2 | -1.5 | -10 | 0.5 | -7 | 2
Cc1nn(-c2ccccc2)nc1C(=O)NNC(=O)c1ccc(C(F)(F)F)cc1 | -9 | -20 | -1.1 | 7 | 0 | 3.1 | 5 | 0.0 | -14 | -4
O=C(Nc1ccc2oc(-c3ccccc3Cl)nc2c1)c1cncc(Br)c1 | · | · | · | -8 | 2 | 4.2 | 10 | ? | -15 | ·
COc1ccc(/C=N\NC(=O)c2ccccc2)cc1COc1ccc(F)cc1 | -10 | -10 | -1.4 | -7 | -4 | 1.2 | 9 | -0.4 | 5 | -1
CCC(=O)c1ccc(N2CCC(C)CC2)c(F)c1 | 6 | -4 | -2.6 | 2 | -4 | 3.9 | -3 | -1.3 | 1 | 5
O=C(Cc1cccs1)N/N=C/c1ccco1 | · | · | · | -10 | 42 | 1.7 | -4 | 0.4 | -18 | 1
CC(C)c1nc2c([nH]1)c(=O)n(C)c(=O)n2C | 2 | 12 | 2.3 | -15 | -4 | -1.0 | 0 | 0.8 | 9 | -5
C1=CCC(CN2CCNCC2)CC1 (stereo not drawn) | 17 | 13 | 4.3 | 6 | -5 | 4.0 | -2 | 0.6 | -1 | -6
O=C(CSc1n[nH]c(=O)[nH]c1=O)Nc1ccc(Br)cc1Br | -2 | 0 | -2.1 | · | 7 | 1.8 | 5 | 0.6 | · | -1
O=c1cc(CN2CCN(c3cccc(Cl)c3)CC2)c2cc3c(cc2o1)CCCC3 | · | · | · | -29 | 0 | -3.9 | -10 | 0.4 | 2 | -3
CCOC(=O)C1CCN(c2ccc(C(=O)O)cc2[N+](=O)[O-])CC1 | · | · | · | ? | · | 1.8 | -5 | 0.1 | -4 | -5
O=C(NCCCO)C(=O)c1c(-c2ccccc2)cc2ccccn12 | 2 | 5 | -4.2 | 6 | -7 | -5.0 | 3 | 0.0 | -12 | -3
O=C(CN1CCN(S(=O)(=O)c2ccc(F)cc2)CC1)Nc1ccc(F)cc1F | -2 | -3 | 0.0 | 0 | 25 | -12 | 0 | 0.0 | -7 | 5
Cc1cc(=O)oc2cc(OC(C)C(=O)NCc3ccccn3)ccc12 (stereo not drawn) | -1 | 5 | -0.5 | 21 | 0 | -3.6 | -3 | -0.1 | -20 | 3
COc1cccc(-c2cccc(NC(=O)C3CCN(Cc4ccc(CO)o4)CC3)c2)c1 | 13 | 12 | 3.2 | 1 | -1 | -0.4 | 4 | 0.3 | -3 | 3
CCc1cc(C(=O)COc2ccc(F)cc2)c(O)cc1O | -26 | -35 | -11 | 11 | 3 | -1.5 | 9 | 0.1 | -6 | 1
Cc1ccc(-n2c(SCC(=O)NCCN3C(=O)CSC3=O)nnc2-c2ccccc2F)cc1 | · | · | · | 3 | 7 | 1.6 | 0 | 0.2 | 2 | -3
COC(=O)c1cc2oc3ccccc3c2n1CC(=O)N1CCCc2ccccc21 | · | · | · | 4 | -20 | 3.2 | 7 | 0.5 | 11 | 3
CSCC[C@H](N)C(=O)N1CCC(C(=O)N[C@@H](C)C(=O)NCc2ccc(F)cc2)CC1 | 5 | -3 | -1.8 | -4 | -15 | 2.4 | 1 | 0.4 | -6 | ·
Cc1ccc(NC(=O)CN(C)C(=O)c2cccc(Br)c2)cc1 | 4 | 3 | -0.9 | -1 | 3 | -1.7 | -8 | -0.3 | -10 | -5
COc1cc(OC)c2c(-c3ccccc3)cc(=O)oc2c1C(CC(=O)N1CCN(c2ccccc2)CC1)c1ccc(N(C)C)cc1 (stereo not drawn) | 3 | 12 | -1.5 | -1 | · | 7.6 | -2 | 0.2 | 23 | 8
O=C(Nc1nnc(C2CCCCC2)s1)c1ccc(Br)s1 | · | · | · | 11 | -3 | -6.2 | -8 | -0.7 | 16 | 3
CCCCCCCCCCCC(=O)NC(C(=O)OCC)C(O)c1cccc([N+](=O)[O-])c1 (stereo not drawn) | · | · | · | 1 | 1 | 3.7 | 4 | 0.1 | 15 | 5
CCOC(=O)N1CCN(S(=O)(=O)c2cc(Cl)c(OC)cc2Cl)CC1 | · | · | · | -3 | -8 | -1.0 | -10 | 0.2 | 9 | -4
